# GIV Gai3 FP = inhibitors of GIV peptide binding to Galpha-i3, primary screen, biochemical, fluorescence polarization, FITC-GIV GBA peptide, rat Galphai3 | 90 min; active compounds read low; scaled: aluminum fluoride 0%, vehicle 100% | 210,000 compounds, 0.42% hits | AID 1224905, 2016 | Guanine nucleotide-binding protein G(i) subunit alpha-3 (Rattus norvegicus), P08753 | percent of control (FP), % (test concentration not listed);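 active = replicate mean at 85% of control or lower, very high polarization wells dropped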;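 also: lower values mean more displacement of the GIV peptide from Galpha-i3; wells of about 15 µL received 100 nL stock; the first replicate is given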
# Target sequence (P08753 whole entry, looked up): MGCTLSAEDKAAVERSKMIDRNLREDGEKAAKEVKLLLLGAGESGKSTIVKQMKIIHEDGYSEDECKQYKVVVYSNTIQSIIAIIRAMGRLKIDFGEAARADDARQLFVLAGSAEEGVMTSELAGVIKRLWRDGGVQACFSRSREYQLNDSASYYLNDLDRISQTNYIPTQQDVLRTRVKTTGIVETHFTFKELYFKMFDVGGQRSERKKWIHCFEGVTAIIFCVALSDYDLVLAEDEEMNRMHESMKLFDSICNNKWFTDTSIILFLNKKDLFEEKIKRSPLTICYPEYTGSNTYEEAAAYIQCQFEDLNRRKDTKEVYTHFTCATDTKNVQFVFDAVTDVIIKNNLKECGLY
# Sa growth 42C = S. aureus growth inhibition at 42 and 30 °C, primary screen, LtaS inhibitor project, RN4220, two temperatures; relative growth, % (no concentration beside the values); 170,000 compounds, 0.53% hits; AID 720641, 2013; OD600, 20 h, 42 °C; active compounds read low;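 active = growth at 42 °C up to 50% and 20 or more points under that at 30 °C, or under 10% at both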;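 also: 300 nL library stock went into each well; scaled to the means of positive and negative controls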
# HCMV UL50-53 inh = inhibitors of HCMV UL50-UL53 interaction, biochemical, HTRF | HCMV UL50-UL53 nuclear egress complex (human cytomegalovirus) | normalized percent inhibition | inhibition, % (test concentration not listed) | 190,000 compounds, 0.15% hits | AID 1918969, 2023;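 active = both replicates at 50% or more, plus weaker picks with an unusually low signal ratio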;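 also: stock transfer was 100 nL into about 20 µL; 0% = negative control wells and 100% = wells with untagged competitor protein; inactives centre near -12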
# Sa growth 42C second temp = recorded beside Sa growth 42C, whose call it bears; relative growth, %; measured here: growth at 30 °C;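 optical density after 20 h as mean of two plates; 100% = untreated growth and lower means inhibition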
# Numbers without * were called inactive; / = no result given.
# Start of the listing, in advance:
SMILES,GIV Gai3 FP,Sa growth 42C,Sa growth 42C second temp,HCMV UL50-53 inh
NNC(=O)CN1C(=O)Nc2ccc(Br)cc2C1c1ccccc1 (stereo unspecified),105,92,73,-10
Nn1c(SCC(=O)N2CCCC2)nnc1C1CCCCC1,/,95,95,-4
Cn1ccnc1C(=O)c1cccc(Br)c1,/,91,91,-2
CCN(c1cc(C)cc(C)c1)S(=O)(=O)c1nnc(NC(=O)c2ccccc2C)s1,100,95,85,-16
CC(=O)N1CCc2cc(-c3ccc(C(=O)NCc4cccnc4)cc3)ccc21,99,/,/,-2
CCOC(=O)CSCC1=C(C(=O)OCC)CNC(=O)N1,/,81,94,-26
Cc1ccc(NC(=O)c2cc3c(=O)[nH]c4ccccc4c3n2C)cc1F,102,100,95,-12
CCc1ccc(CNC(=O)c2ccc3c(c2)nc2n3CCCCC2)cc1,102,87,91,/
COc1ccc2oc(=O)c(-c3nc4ccccc4c(=O)[nH]3)cc2c1,109,95,104,0
O=C(NCCN1CCN(Cc2ccccc2)CC1)Nc1ccc(F)cc1,100,89,82,-17
CN(C)c1ccc(N=Cc2nc(-c3ccccc3)oc2O)cc1,-24*,88,81,/
Cc1cc(C)c2oc(-c3cccc(NC(=O)c4cc5ccccc5o4)c3)nc2c1,105,88,81,-29
CCCn1c(C)cc(C(=O)CSc2nnc(-c3ccccc3)n2C)c1C,/,91,92,-15
Cc1ccc(C)c(N2N=C(C(=O)OCC(=O)NC3CC3)CCC2=O)c1,/,92,98,-12

# Main list (from the top)
SMILES,GIV Gai3 FP,Sa growth 42C,Sa growth 42C second temp,HCMV UL50-53 inh
NNC(=O)CN1C(=O)Nc2ccc(Br)cc2C1c1ccccc1 (stereo unspecified),105,92,73,-10
Nn1c(SCC(=O)N2CCCC2)nnc1C1CCCCC1,/,95,95,-4
Cn1ccnc1C(=O)c1cccc(Br)c1,/,91,91,-2
CCN(c1cc(C)cc(C)c1)S(=O)(=O)c1nnc(NC(=O)c2ccccc2C)s1,100,95,85,-16
CC(=O)N1CCc2cc(-c3ccc(C(=O)NCc4cccnc4)cc3)ccc21,99,/,/,-2
CCOC(=O)CSCC1=C(C(=O)OCC)CNC(=O)N1,/,81,94,-26
Cc1ccc(NC(=O)c2cc3c(=O)[nH]c4ccccc4c3n2C)cc1F,102,100,95,-12
CCc1ccc(CNC(=O)c2ccc3c(c2)nc2n3CCCCC2)cc1,102,87,91,/
COc1ccc2oc(=O)c(-c3nc4ccccc4c(=O)[nH]3)cc2c1,109,95,104,0
O=C(NCCN1CCN(Cc2ccccc2)CC1)Nc1ccc(F)cc1,100,89,82,-17
CN(C)c1ccc(N=Cc2nc(-c3ccccc3)oc2O)cc1,-24*,88,81,/
Cc1cc(C)c2oc(-c3cccc(NC(=O)c4cc5ccccc5o4)c3)nc2c1,105,88,81,-29
CCCn1c(C)cc(C(=O)CSc2nnc(-c3ccccc3)n2C)c1C,/,91,92,-15
Cc1ccc(C)c(N2N=C(C(=O)OCC(=O)NC3CC3)CCC2=O)c1,/,92,98,-12
O=C(Cc1cccs1)NCc1cc(Cl)cc(Cl)c1,104,114,88,-14
COc1ccc(S(=O)(=O)[C@H]2CS(=O)(=O)C[C@@H]2NC2CCCC2)cc1,106,/,/,-19
CCCc1cnc(N2CCN(S(=O)(=O)c3cccs3)CC2)nc1,105,104,90,-29
CCC(C(=O)Nc1cc(C)ccc1OC)n1nnc(C(=O)OC)c1C(=O)OC (stereo unspecified),98,105,88,-12
N#CC1(C#N)C(c2ccccc2Cl)C1(C#N)C#N,103,101,81,3
CC(C)N(C(=O)NC(=O)Nc1cccc2ccccc12)S(C)(=O)=O,/,106,84,-24
Cc1sc2c(c1C)c(=O)n(-c1ccc(Cl)cc1)c(=O)n2CC(=O)N1CCCCC1C (stereo unspecified),110,116,87,/
Nc1nc(/C(=C/CC(=O)O)C(=O)N[C@@H]2C(=O)N3C(C(=O)O)=CCS[C@H]23)cs1,/,-0.7*,-0.6*,-39
CCCS(=O)(=O)/C(C#N)=C/Nc1ccccn1,99,99,82,-15
COc1ccc(CNC(=O)c2ccc(-c3nc(CSc4ccc(C)cc4)c(C)o3)cc2)cc1OC,106,116,92,/
CCOc1ccc(/C=C(\C(=O)N2CCCC2)n2ccccc2=O)cc1,98,96,82,-4
# Carrying on:
SMILES,GIV Gai3 FP,Sa growth 42C,Sa growth 42C second temp,HCMV UL50-53 inh
CC1CCCCN1C(=O)CSCC(=O)Nc1nc(-c2ccc(Cl)s2)cs1 (stereo unspecified),112,113,91,2
CCc1nn(CC(=O)NC2CC2)c(=O)c2cc3occc3n12,101,99,89,/
Fc1ccccc1-c1nn2c(-c3ccccn3)nnc2s1,118,/,/,-19
CCS(=O)(=O)C(=C(Nc1ccccc1)Nc1ccccc1)S(=O)(=O)CC,104,96,83,/
CSC(=NS(=O)(=O)c1ccccc1)SC,96,92,95,3
CC(C)NC(=O)CCc1nc2sc3c(c2c(=O)[nH]1)CCC(C(C)(C)C)C3 (stereo unspecified),98,/,/,-8
Cc1c(C)n(-c2ccc(F)c(F)c2)c2ncnc(Nc3ccc(F)c(F)c3)c12,105,/,/,-27
O=C(CSc1nncn2c1cc1sccc12)Nc1ccc(Br)cc1F,103,104,80,/
COc1ccc(CNC(=O)CCc2c(C)nn(-c3ccc(N4CCCC4)nn3)c2C)c(OC)c1,98,76,90,/
CCOC(=O)c1c(C)n(OCc2ccccc2)c2ccc3nonc3c12,99,84,63,/
COc1ccc(OC)c(NC(=S)NCCN2CCOCC2)c1,/,76,89,-29
COc1ccc(N2CCN(CCCNC(=O)C3CCCN(S(=O)(=O)c4cnc[nH]4)C3)CC2)cc1 (stereo unspecified),104,96,95,/
CCCc1cc(=O)n2[nH]c(C(F)(F)F)nc2n1,99,105,86,-18
COc1ccc(Cn2c(CCC(=O)NCc3ccccc3)nc3cccnc32)cc1,97,103,87,/
COc1ccccc1-n1c(-c2ccccc2)cnc1SCC#N,/,112,86,-35
Cn1c(=NC(=O)CCSc2ccccc2)sc2cc(Cl)ccc21,101,66,90,/
Nc1ccc(S(=O)(=O)N2CCCC(C(=O)O)C2)cc1 (stereo unspecified),102,88,81,-25
CCc1cccc(OCC(=O)Nc2c[nH]c(=O)[nH]c2=O)c1,101,99,78,-5
Cc1ccc2oc(=O)n(CCC(=O)O)c2c1,104,97,87,-14
CCCNS(=O)(=O)c1ccc(OCC(=O)O)c(Cl)c1,101,106,104,-14
Cc1cc(C(=O)n2ccc(-c3cccs3)n2)c(C)o1,99,122,103,16
O=S(=O)(Cc1cccc(C(F)(F)F)c1)c1ccc(Cl)cc1,113,91,85,-7
O=C(COC(=O)c1ccncc1)c1ccc2ccccc2c1,/,101,82,-18
CCOC(=O)c1ccccc1NC(=O)c1cnc(N2CCOCC2)c2ccccc12,108,97,105,/
CC(COc1ccc(C(C)C)cc1)NC(=O)c1ccco1 (stereo unspecified),/,108,93,8
# (cont.)
SMILES,GIV Gai3 FP,Sa growth 42C,Sa growth 42C second temp,HCMV UL50-53 inh
O=C(CCCn1c(=O)c2cccn2c2cccnc21)NCCc1ccc(Cl)cc1,102,109,81,/
COc1ccc(-c2c(C)nn3c(N4CCc5ccccc54)cc(C)nc23)cc1OC,99,75,80,/
N#C/C(=C\c1ccco1)C(=O)Nn1cnnc1,105,107,110,-37
COc1ccc(NC(=O)C(=O)NCC(c2cccnc2)N2CCc3ccccc32)cc1OC (stereo unspecified),105,104,96,-5
Cc1nc2ccccc2c2oc(C(=O)NCCN3CCN(C)CC3)cc12,100,116,99,/
CCCn1c(CCC(=O)Nc2ccccc2)nc2cccnc21,105,103,87,/
CCC(C)(C)N1CC(=O)N(Cc2ccccc2)C(c2ccc(OC)cc2)C1=O (stereo unspecified),103,106,95,-11
CC(C)(C)c1oc(C(=O)Nc2ccc3c(c2)oc2ccccc23)cc1COCC(F)(F)F,/,94,87,-4
NC(=O)N1CCNCC1,103,102,86,-3
CS(=O)(=O)N(c1ccc(F)cc1)C1C=CS(=O)(=O)C1 (stereo unspecified),/,82,91,-4
CC(=O)NC12CC3CC(C1)CC(C(=O)NCC(c1ccco1)N(C)C)(C3)C2 (stereo unspecified),/,104,91,-13
Cc1cc(C)c(CN)cc1CN,111,112,99,0
CCC1Cn2c(C(=O)NC3CCCC3)cc3c(Cl)ccc(c32)O1 (stereo unspecified),107,/,/,-2
CCC(C)Cn1c(CC(C)(C)C)nc2ccccc21 (stereo unspecified),101,91,47,/
Cc1ccc2nc(NC(=O)CSc3nnc(Cc4ccccc4)o3)sc2c1,107,98,99,10
O=C(Cc1ccccc1F)Nc1cccc(-c2nn[nH]n2)c1,106,103,105,1
Cc1cc2[nH]c(=O)c(=O)[nH]c2cc1S(=O)(=O)N1CCN(c2cccc(C(F)(F)F)c2)CC1,104,97,100,/
CN(C(=O)COC(=O)c1ccc2ccccc2n1)C1CCCCC1,/,134,86,-60
CCOc1ccc(C2C(=O)N(C3CCCCC3)CC(=O)N2C2CCCC2)cc1OC (stereo unspecified),100,89,92,/
CCOCc1cc(CN2CCN(c3ccccc3OC)CC2)c(O)c2ncccc12,98,86,95,-24
CCn1c(SCC(=O)NCc2ccc(C)cc2)nc2c(c1=O)SCC2,99,97,95,-4
CSc1ccc(CCNC(=O)c2cc3c(-c4ccccc4F)nn(C)c3s2)cc1,107,111,85,-37
Cc1cc(=O)n(CC(=O)Nc2ccc(F)cc2)c(SCC(N)=O)c1C#N,/,74,97,-12
O=C(NCc1ccco1)c1cc(=O)c2ccccc2o1,/,98,96,-23
Cc1cc(C)n2cc(CSCc3ccccc3)nc2n1,/,82,86,-3
# (cont.)
SMILES,GIV Gai3 FP,Sa growth 42C,Sa growth 42C second temp,HCMV UL50-53 inh
CCOc1ccccc1NC(=O)N1CC(CC)Oc2ccccc21 (stereo unspecified),105,96,93,-12
CNC(=O)c1c(NC(=O)/C=C/c2ccccc2Cl)sc2c1CCC2,99,95,82,/
Fc1ccc(-c2cn3cc(Cc4ccc(Cl)cc4)sc3n2)cc1,96,99,91,-2
O=C(Nc1ccccc1)c1csc(-c2ccc3c(c2)CCO3)n1,101,108,88,-2
COCc1c(C(=O)NCc2ccc(OC)cc2)oc2ccccc12,/,91,94,-28
CCN(Cc1ccccc1)C(=O)c1cc2sccc2n1Cc1ccccc1,104,108,88,-5
O=C1CN(C(=O)C2CCCCC2)c2ccccc2N1,98,/,/,-16
O=C(OC(C(=O)NC1CCCC1)c1cccnc1)C1=Cc2ccccc2OC1 (stereo unspecified),100,128,98,-14
CC1Sc2nnc(-c3ccc(OC(F)F)cc3)n2N=C1c1ccc(NS(C)(=O)=O)cc1 (stereo unspecified),/,69,32,-45
N#Cc1c2c(c(N3CCN(CCO)CC3)n3c1nc1ccccc13)CCC2,100,88,88,-42
CC(c1ccco1)N(C(=O)c1ccc(Cl)s1)c1ccccn1 (stereo unspecified),/,95,96,-26
CCCCCn1c(-c2cccc(C)c2)nc2ccccc21,105,72,51,1
CS/C(=N\S(=O)(=O)c1cccs1)Nc1ccc(N2CCOCC2)cc1,/,104,87,4
CCCc1cc(=O)[nH]c(SC(C)C(=O)NC(=O)NC)n1 (stereo unspecified),/,96,98,-13
O=C(OCc1cc(=O)n2cc(Br)ccc2n1)c1cnccn1,/,97,87,-35
CCOc1cccc(/C=N/n2c(-c3ccc(Cl)cc3)n[nH]c2=S)c1O,/,95,102,4
Cc1cc(N2CCC(C)CC2)nc2ccc(NC(=O)c3ccc(F)cc3)cc12,103,/,/,-11
Cc1ccc(C(=O)CSc2nc(C)cc(SCC#N)n2)cc1,101,84,88,-37
Fc1ccccc1-c1nc(NCc2cccs2)c2ccccc2n1,109,/,/,14
Cc1oc(-c2ccc(C(=O)Nc3ccccc3F)cc2)nc1COc1ccccc1,102,122,100,/
O=C1NNC(c2ccccc2)=N/C1=C\c1ccccc1,101,105,90,8
COc1ccc(S(=O)(=O)Nc2ccc(-c3cn4ccsc4n3)cc2)cc1C,106,104,104,/
CCSc1ncc(Cl)c(C(=O)Nc2c(C(=O)c3ccc(C)c(F)c3)oc3ccccc23)n1,101,94,101,8
Cc1ccc(OCC(=O)Nc2ccc3[nH]c(=O)sc3c2)cc1,108,122,92,2
CCOc1nc(NC(=O)NC(=O)c2cccs2)nc(-c2ccccc2)n1,/,94,74,-9
# (next part)
SMILES,GIV Gai3 FP,Sa growth 42C,Sa growth 42C second temp,HCMV UL50-53 inh
Cc1ccc(C#N)c(SCc2nnc(-c3ccc(Cl)cc3)o2)n1,98,93,83,/
Cc1cc(O)cc(=O)[nH]1,101,95,87,-38
O=S1(=O)N=C(N(Cc2cccs2)c2ccc(O)cc2)c2ccccc21,/,91,84,8
COCCCNc1ncnc2c1c(-c1ccccc1)cn2-c1ccc(C)c(Cl)c1,98,97,91,/
COc1ccc(-c2nc(SCC(=O)N3CCCC3)c3c(=O)n(C)c(=O)n(C)c3n2)cc1,105,95,100,6
Cc1ccc(NC(=O)N2CC=C(c3c[nH]c4ccccc34)CC2)cc1C,118,/,/,-3
COc1ccccc1Nc1ncc(C(=O)NCCCN2CCC(C)CC2)c2ccccc12,96,95,76,/
Cc1cc(N2CCC(C)CC2)nc2ccc(NC(=O)CCC(=O)NC3CCCCC3)cc12,107,/,/,6
CSc1ccccc1NC(=O)C1C2CCC(C2)C1C(=O)O (stereo unspecified),101,111,102,-23

# Bioassay records as filed in PubChem BioAssay.
